Mtb bLac sens: beta-lactam sensitization of Mtb H37Rv; M. tuberculosis H37Rv growth with meropenem, percent inhibition; hits of this screen are not shown here; inhibition, % at 25 µM; hit rate 0.27% among 330,000;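 active = about 74% or more and at least 40 points above the plate without the antibiotic, then above 30% in a dose series; inconclusive = first-round hits that could not be retested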;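 note: growth measured after seven days incubation then overnight dye step; 0% = bacteria only wells and 100% = bacteria with antibiotic; twin plates without the antibiotic show which effects depend on it; some results filed as inactive read as strong as hits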
YopH PTP inh: inhibitors of Yersinia enterocolitica YopH tyrosine phosphatase. fluorescence Ex485/Em525. inhibition, %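 (about 10 µM by stock and volumes)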. hit rate 0.16% among 140,000;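 active = inhibition of 50% or more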;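 note: controls were vehicle for no effect and minimum signal wells for full effect; inactives centre near -20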
RecA splice inh: blocks M. tuberculosis RecA intein splicing. hit rate 0.75% among 290,000. cell-free RecA intein splicing, fluorescence. inhibition, %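 (about 9 µM by stock and volumes)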. P9WHJ3. AID 2221; in the data active = inhibition above about 30%; inconclusive = no clear call, values can overlap the other calls;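 note: 0% = vehicle wells and 100% = reference inhibitor control wells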
Target sequence (P9WHJ3 whole entry, looked up, canonical isoform): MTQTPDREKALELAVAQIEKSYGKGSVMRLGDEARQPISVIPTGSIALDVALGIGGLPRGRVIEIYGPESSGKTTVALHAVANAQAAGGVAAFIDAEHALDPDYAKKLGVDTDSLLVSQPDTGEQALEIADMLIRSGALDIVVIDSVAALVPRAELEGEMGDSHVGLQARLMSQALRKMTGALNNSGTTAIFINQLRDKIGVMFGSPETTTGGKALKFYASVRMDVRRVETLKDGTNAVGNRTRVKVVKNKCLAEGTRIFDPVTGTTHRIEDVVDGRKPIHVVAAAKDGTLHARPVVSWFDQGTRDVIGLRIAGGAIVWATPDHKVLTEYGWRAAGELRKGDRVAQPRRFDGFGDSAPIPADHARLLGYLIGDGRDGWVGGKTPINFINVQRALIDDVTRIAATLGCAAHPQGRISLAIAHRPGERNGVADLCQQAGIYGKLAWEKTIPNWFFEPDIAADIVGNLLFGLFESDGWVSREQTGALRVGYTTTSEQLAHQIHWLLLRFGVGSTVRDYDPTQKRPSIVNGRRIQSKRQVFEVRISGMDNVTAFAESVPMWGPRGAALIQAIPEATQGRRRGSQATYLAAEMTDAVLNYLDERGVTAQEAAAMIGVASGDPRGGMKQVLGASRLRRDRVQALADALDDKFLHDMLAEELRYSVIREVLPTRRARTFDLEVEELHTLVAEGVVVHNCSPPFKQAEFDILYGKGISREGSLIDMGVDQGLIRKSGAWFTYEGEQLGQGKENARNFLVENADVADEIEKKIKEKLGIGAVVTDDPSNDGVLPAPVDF
Mtb H37Rv: M. tuberculosis H37Rv growth inhibitors, H37Rv strain (AID 1626); M. tuberculosis H37Rv growth inhibition; higher % means a stronger effect; inhibition, % at 10 µM; hits with a dose series show IC50 in µM; hit rate 0.95% among 220,000;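 active = confirmed in a dose series; inconclusive = inhibition above 80% but not taken into the dose series; inactive = below 80% or under 30% at every dose of the series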;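 note: bacteria incubated seven days before Alamar blue readout; 0% = bacteria only wells and 100% = bacteria with antibiotic wells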
Arbovirus inh: blocks arbovirus infection | AID 1251 | hit rate 0.37% among 200,000 | arbovirus infection cell-based antiviral screen | inhibition, % at 10 µM;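 active = inhibition from about 30%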;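 note: bluetongue infection of BSR cells; cell survival read as ATP light after 72 h; 0% = infected wells without compound and 100% = uninfected wells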
Arbovirus inh repeat: recorded beside Arbovirus inh, whose call it bears; inhibition, %; measured here: 10K subset replicate screen; many hits read low in the repeat;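 first of two repeat runs on a subset; 0% = infected and 100% = uninfected wells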
An asterisk follows results filed as active; ? = inconclusive; · = no result given.

SMILES	Mtb bLac sens	YopH PTP inh	RecA splice inh	Mtb H37Rv	Arbovirus inh	others
Cc1cccc(NC(=O)CSc2nnc(CSc3nc(C)cc(C)n3)n2Cc2ccco2)c1	-3	-22	7.1	-8%	-1
Cc1onc(-c2ccccc2Cl)c1C(=O)N1CCN(c2ccc(F)cc2)CC1	-2	·	-0.1	·	·
Cc1ccc(CCNC(=O)CNS(=O)(=O)c2ccc3nc(C)sc3c2)cc1	5	·	0.4	·	·
Cc1ccc(-c2csc(=S)n2CC(=O)OCC(=O)NCc2ccco2)cc1	-7	-21	-0.7	-4%	-4
CC(=O)Cc1nsc(NC(=O)c2cn(-c3ccccc3)nc2-c2ccc(Br)cc2)n1	9	-1	-0.1	-3%	9
CCCC(C)NC(=O)c1cc(C(=O)OC)cc([N+](=O)[O-])c1 (stereo not given)	7	3	-3.5	-2%	1
CSc1c(C#N)sc(=S)n1-c1ccc(C)cc1	-1	·	-2.1	4%	-6
CC(OC(=O)c1ccccc1Br)C(=O)Nc1nc(-c2cccc([N+](=O)[O-])c2)cs1 (stereo not given)	14	-51	-3.9	42%	-2
CCn1c(C(Cc2ccccc2)NC(=O)COC)nc2ccccc21 (stereo not given)	-2	-14	1.4	-6%	10
CC(C)(C)OC(=O)N1CCOCCOCCNCCOCCOCC1	5	-25	-1.0	-4%	9
CCOc1ccc(C2=Nc3ccccc3C(c3ccc(N4CCOCC4)cc3)=NN2)cc1	90	-28	0.1	·	-19
Cc1cc(C)cc(C(=O)Nc2ccncc2)c1	-8	·	-1.1	·	·
O=[N+]([O-])c1cc(/C=N/Nc2nc3ccccc3[nH]2)c(O)cc1O	8	-10	40*	24%	-26
Cc1ccc(Sc2ncccc2N)cc1	0	·	2.0	·	·
COC(=O)c1c(NC(=O)CSc2nnc3ccccn23)sc2c1CCC2	-6	-22	2.2	-2%	-5
CC(C)c1ccc(Nc2nc(Cl)nc(NCc3ccco3)n2)cc1	0	·	5.4	-6%	·
Nc1ncnc(Oc2ccccc2F)c1[N+](=O)[O-]	8	·	-2.8	7%	7
Cc1cccc(Nc2ccccc2)c1	-15	-37	2.2	-6%	-2
N#Cc1c(-c2ccc(F)cc2)c2c([nH]c1=O)-c1ccccc1OC2	-1	·	-36	0%	·
O=C(CC1SC(=O)NC1=O)Nc1ccc(Cl)cc1 (stereo not given)	-6	·	-0.9	4%	1
COc1ccccc1C1CCN(Cc2ccccc2Cl)CC1	3	·	-2.5	·	·
COc1ccc(CCNc2ncnc3[nH]ncc23)cc1OC	1	-25	1.1	-4%	3
O=C(COC(=O)Cc1cccc(C(F)(F)F)c1)Nc1ccc2[nH]c(=O)[nH]c2c1	-3	·	-0.8	·	·
c1csc(C(c2nnnn2C2CCCC2)N2CCOCC2)c1 (stereo not given)	-7	-32	-1.2	-3%	3
COc1ccc(-n2c(SCC#N)nnc2-c2cccnc2)cc1	0	-17	1.8	-16%	10
CN(CCNC(=O)C1CCC(=O)N(Cc2ccc(Cl)cc2)C1)CCc1ccccc1 (stereo not given)	-2	·	1.9	·	·
CCn1cc(S(=O)(=O)c2ccc(Cl)cc2)c(=O)c2cc(OC)ccc21	?	·	-0.1	·	·
CCOC(=O)C(CCC#N)(CCC#N)C(=O)OCC	4	-12	-0.3	-4%	2	Arbovirus inh repeat=1
Cc1ccc(S(=O)(=O)NC(=O)N2CCC(C)CC2)cc1	·	-32	·	·	2
O=C(c1cccc(Br)c1)N1CCCC1	-13	-10	-0.2	0%	11

Arranged by molar mass (rising): 20 of the compounds above
SMILES	Mtb bLac sens	YopH PTP inh	RecA splice inh	Mtb H37Rv	Arbovirus inh	others
Cc1cccc(Nc2ccccc2)c1	-15	-37	2.2	-6%	-2
Cc1ccc(Sc2ncccc2N)cc1	0	·	2.0	·	·
Cc1cc(C)cc(C(=O)Nc2ccncc2)c1	-8	·	-1.1	·	·
Nc1ncnc(Oc2ccccc2F)c1[N+](=O)[O-]	8	·	-2.8	7%	7
O=C(c1cccc(Br)c1)N1CCCC1	-13	-10	-0.2	0%	11
CCOC(=O)C(CCC#N)(CCC#N)C(=O)OCC	4	-12	-0.3	-4%	2	Arbovirus inh repeat=1
O=C(CC1SC(=O)NC1=O)Nc1ccc(Cl)cc1 (stereo not given)	-6	·	-0.9	4%	1
COc1ccc(CCNc2ncnc3[nH]ncc23)cc1OC	1	-25	1.1	-4%	3
O=[N+]([O-])c1cc(/C=N/Nc2nc3ccccc3[nH]2)c(O)cc1O	8	-10	40*	24%	-26
COc1ccccc1C1CCN(Cc2ccccc2Cl)CC1	3	·	-2.5	·	·
N#Cc1c(-c2ccc(F)cc2)c2c([nH]c1=O)-c1ccccc1OC2	-1	·	-36	0%	·
c1csc(C(c2nnnn2C2CCCC2)N2CCOCC2)c1 (stereo not given)	-7	-32	-1.2	-3%	3
CCn1c(C(Cc2ccccc2)NC(=O)COC)nc2ccccc21 (stereo not given)	-2	-14	1.4	-6%	10
CC(C)c1ccc(Nc2nc(Cl)nc(NCc3ccco3)n2)cc1	0	·	5.4	-6%	·
CC(C)(C)OC(=O)N1CCOCCOCCNCCOCCOCC1	5	-25	-1.0	-4%	9
CCn1cc(S(=O)(=O)c2ccc(Cl)cc2)c(=O)c2cc(OC)ccc21	?	·	-0.1	·	·
COC(=O)c1c(NC(=O)CSc2nnc3ccccn23)sc2c1CCC2	-6	-22	2.2	-2%	-5
O=C(COC(=O)Cc1cccc(C(F)(F)F)c1)Nc1ccc2[nH]c(=O)[nH]c2c1	-3	·	-0.8	·	·
CCOc1ccc(C2=Nc3ccccc3C(c3ccc(N4CCOCC4)cc3)=NN2)cc1	90	-28	0.1	·	-19
CN(CCNC(=O)C1CCC(=O)N(Cc2ccc(Cl)cc2)C1)CCc1ccccc1 (stereo not given)	-2	·	1.9	·	·

Carrying on.
SMILES	Mtb bLac sens	YopH PTP inh	RecA splice inh	Mtb H37Rv	Arbovirus inh	others
COc1ccc(OC)c(C2NC(=O)NC(C)=C2C(=O)Nc2ccc(C)cc2)c1 (stereo not given)	-6	-15	-5.8	-9%	1
CC1CN(c2nc(Nc3ccccc3F)nc(N)c2[N+](=O)[O-])CC(C)O1 (stereo not given)	-3	·	2.4	·	·
Cc1ccc(N2N=C(c3ccc(F)cc3)CC2c2ccco2)cc1 (stereo not given)	3	·	-4.0	-1%	11
Cc1cccc(CN2CCCC(C(=O)Nc3ccccc3Oc3cccnc3)C2)c1 (stereo not given)	-5	·	2.2	·	·
O=C(Nc1ccc(C(=O)NC2CCCCC2)cc1)c1cccnc1	2	·	-1.3	3%	-3
Cc1cc(C(F)F)n2ncc(C(=O)NCc3ccccc3)c2n1	-1	-45	-0.4	-6%	-1
COCc1cc(=O)n2[nH]c(N)nc2n1	3	·	-3.3	-4%	·
COc1cc(C(=O)n2nc(C)cc2C)cc(OC)c1OC	-13	-43	-4.7	42%	-2	Arbovirus inh repeat=4
COC(=O)c1ccc(NC(=O)CN2CCN(CC#N)CC2)cc1	0	·	-2.6	·	·
Cn1c(SCC(=O)NC2CC2)nnc1-c1ccco1	-6	-34	·	2%	2
CSCCC(NC(=O)c1ccc(Cl)cc1)C(=O)OCC(C)=O (stereo not given)	1	·	·	-4%	0
O=C(Nc1nnc(C(F)(F)F)s1)c1ccc(Br)s1	41	·	-3.9	26%	4
CC(C)C(Sc1nc(-c2ccccc2)cc(-c2ccccc2)c1C#N)C(=O)O (stereo not given)	2	·	9.3	-7%	-8
COc1ccccc1CCNC(=O)CCC(=O)N1CC2C[C@@H](C1)Cn1c2cccc1=O	-10	·	-0.1	·	·
COc1ccccc1NC(=O)COC(=O)c1cnc(C)cn1	6	·	3.0	0%	3
O=C(CNC(=O)c1ccc(F)cc1)Nc1ccccc1C(F)(F)F	3	·	0.2	11%	·
COc1cccc(/C=C2\SC(=S)N(C(Cc3ccccc3)C(=O)O)C2=O)c1 (stereo not given)	3	·	12	-4%	-9
N/C(CS(=O)(=O)c1ccc(F)cc1)=N\O	-5	·	3.1	-10%	·
Cc1cccc(-c2noc(CCCC(=O)NC3CCCCC3)n2)c1	4	·	-0.8	·	·
Cc1noc(C)c1S(=O)(=O)N1CCCC(C(=O)NCCc2ccccc2)C1 (stereo not given)	-4	-48	·	7%	6
Cc1cc(C)c(NC(=O)COC(=O)c2cc([N+](=O)[O-])ccc2N2CCOCC2)c(C)c1	10	·	1.9	·	·
C=CCOc1c(CCC)cc(CCC)cc1C(N)=O	17	·	1.6	3%	·
COc1ccc(-n2nc([N+](=O)[O-])c(=NCCCN3CCCC3=O)n2O)cc1	4	·	-1.4	-2%	-4
CCCCOC(=O)CCc1c(C)[nH]c(=S)[nH]c1=O	-1	-5	-0.2	-7%	2
COCCNc1nc2nonc2nc1N1CCC(N(C)C)C1 (stereo not given)	0	·	0.3	2%	1
CCOc1ccc(C(=O)Nc2cccc(SC)c2)cc1	84	-19	-0.2	45%	4
CCN(CC(=O)Nc1ccc(NC(C)=O)cc1)C(=O)c1ccc(=O)[nH]c1	-12	·	0.2	·	·
Cc1ccc(C(=O)N/C(=C\c2cn(C)c3ccccc23)C(=O)OCCN(C)C)cc1	3	·	2.7	-6%	·
O=C(NCC(=O)N(CCN1CCOCC1)C(C(=O)NC1CCCC1)c1cccs1)c1ccco1 (stereo not given)	-5	-24	-1.2	-11%	4
COc1ccc(CNC(=O)c2ccc[nH]2)cc1	6	·	-2.1	2%	4
O=C(NCc1cccs1)c1ccc(N2CCCCC2)nc1	6	12	0.0	0%	-8
Cc1ccc2nc(SCc3ccc([N+](=O)[O-])cc3)[nH]c2c1	98	-16	1.6	-11%	6
O=C(CSc1ccc(Cl)cc1)Nn1cnnc1	-1	-44	0.7	-6%	-9
C=CCN(C(C)=O)C1CC(=O)N(c2ccc(OCCC)cc2)C1=O (stereo not given)	7	6	1.1	0%	2
O=C(NC1CCCC1)c1cnc2n(c1=O)CCS2	1	-27	-0.9	4%	2
Cc1ccnc(N2CCC(C(=O)NNC(=O)c3ccccc3C)CC2)n1	-1	-36	0.5	-9%	1
COc1cccc(CSc2nc3ccccc3[nH]2)c1	-3	-43	1.8	2%	-2
COc1ccc(N2CC(C(=O)N3CCOCC3)CC2=O)cc1 (stereo not given)	0	·	-2.1	·	·
CC(NC(=S)Nc1ccc(OC(F)F)c(Cl)c1)C(C)(C)C (stereo not given)	94	·	2.6	?	-16

Screens from PubChem BioAssay.

Some of the compounds tested; rates above refer to the full screens.
